Arbovirus inh – blocks arbovirus infection; arbovirus infection cell-based antiviral screen; inhibition, % at 10 µM; 200,000 tested, 0.37% active;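 active means inhibition from about 30%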;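 further: bluetongue infection of BSR cells; cell survival read as ATP light after 72 h; 0% = infected wells without compound and 100% = uninfected wells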
Mtb growth – M. tuberculosis H37Rv growth inhibitors, H37Rv strain (AID 1626); 220,000 tested, 0.95% active; inhibition, % at 10 µM, or IC50 in µM where a hit was titrated; M. tuberculosis H37Rv growth inhibition; higher % means a stronger effect;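 active means confirmed in a dose series; inconclusive means inhibition above 80% but not taken into the dose series; inactive means below 80% or under 30% at every dose of the series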;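 further: bacteria incubated seven days before Alamar blue readout; 0% = bacteria only wells and 100% = bacteria with antibiotic wells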
Mtb bLac sens – beta-lactam sensitization of Mtb H37Rv | M. tuberculosis H37Rv growth with meropenem, percent inhibition; hits of this screen are not shown here | inhibition, % at 25 µM | 330,000 tested, 0.27% active | AID 434955;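 active means about 74% or more and at least 40 points above the plate without the antibiotic, then above 30% in a dose series; inconclusive means first-round hits that could not be retested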;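 further: growth measured after seven days incubation then overnight dye step; 0% = bacteria only wells and 100% = bacteria with antibiotic; twin plates without the antibiotic show which effects depend on it; some results filed as inactive read as strong as hits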
RecA splice inh – inhibitors of M. tuberculosis RecA intein splicing | inhibition, %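 (about 9 µM by stock and volumes)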 | AID 2221 | cell-free RecA intein splicing, fluorescence | 290,000 tested, 0.75% active; in the data active means inhibition above about 30%; inconclusive means no clear call, values can overlap the other calls;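 further: 0% = vehicle wells and 100% = reference inhibitor control wells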
Target sequence (P9WHJ3 whole entry, looked up, canonical isoform): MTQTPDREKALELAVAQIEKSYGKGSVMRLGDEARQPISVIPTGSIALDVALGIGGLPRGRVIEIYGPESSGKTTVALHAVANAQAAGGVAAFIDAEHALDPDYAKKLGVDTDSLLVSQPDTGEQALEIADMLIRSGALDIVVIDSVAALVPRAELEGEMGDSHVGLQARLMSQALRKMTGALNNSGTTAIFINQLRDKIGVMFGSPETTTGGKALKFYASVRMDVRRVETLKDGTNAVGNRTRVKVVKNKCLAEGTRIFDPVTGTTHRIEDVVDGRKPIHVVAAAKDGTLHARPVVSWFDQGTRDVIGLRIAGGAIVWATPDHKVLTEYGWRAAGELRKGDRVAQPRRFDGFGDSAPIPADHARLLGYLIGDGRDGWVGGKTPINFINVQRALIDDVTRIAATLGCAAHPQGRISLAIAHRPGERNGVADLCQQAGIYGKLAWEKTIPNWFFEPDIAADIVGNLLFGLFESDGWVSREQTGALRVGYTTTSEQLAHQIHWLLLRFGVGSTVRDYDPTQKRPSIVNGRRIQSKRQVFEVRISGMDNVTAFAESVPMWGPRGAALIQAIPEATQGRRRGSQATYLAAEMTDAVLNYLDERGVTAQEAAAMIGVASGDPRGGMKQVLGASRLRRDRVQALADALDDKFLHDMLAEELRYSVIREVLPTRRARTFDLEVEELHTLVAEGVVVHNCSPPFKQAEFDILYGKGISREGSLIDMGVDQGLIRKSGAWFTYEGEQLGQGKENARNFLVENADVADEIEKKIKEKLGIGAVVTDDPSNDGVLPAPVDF
YopH PTP inh – inhibitors of Yersinia enterocolitica YopH tyrosine phosphatase | inhibition, %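 (about 10 µM by stock and volumes)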 | AID 898 | 140,000 tested, 0.16% active | fluorescence Ex485/Em525;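 active means inhibition of 50% or more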;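 further: controls were vehicle for no effect and minimum signal wells for full effect; inactives centre near -20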
Arbovirus inh repeat – recorded beside Arbovirus inh, whose call it bears; inhibition, %; measured here: 10K subset replicate screen; many hits read low in the repeat;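 first of two repeat runs on a subset; 0% = infected and 100% = uninfected wells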
The depositor's hits bear a star; ? = inconclusive; . = no result given.

Sample of the layout:
SMILES | Arbovirus inh | Mtb growth | Mtb bLac sens | RecA splice inh | YopH PTP inh | others
Cc1cc2nc(-c3ccc(NC(=O)C(C)C)cc3)oc2cc1C | 7 | . | -1 | -3.1 | -3
COc1ccc(CNC(=O)[C@H](C)NC(=O)[C@@H]2Cc3ccccc3CN2)cc1 | . | . | 4 | -1.4 | .
CSc1ccc(S(=O)(=O)NCc2ccc(C)cc2)cc1 | 3 | 9% | 2 | 2.9 | -20

Results, from the start:
SMILES | Arbovirus inh | Mtb growth | Mtb bLac sens | RecA splice inh | YopH PTP inh | others
Cc1cc2nc(-c3ccc(NC(=O)C(C)C)cc3)oc2cc1C | 7 | . | -1 | -3.1 | -3
COc1ccc(CNC(=O)[C@H](C)NC(=O)[C@@H]2Cc3ccccc3CN2)cc1 | . | . | 4 | -1.4 | .
CSc1ccc(S(=O)(=O)NCc2ccc(C)cc2)cc1 | 3 | 9% | 2 | 2.9 | -20
CCOc1c2ccc(C(=O)NCC34CC5CC(CC(C5)C3)C4)cc2nn1CC | -28 | -2% | -5 | 4.6 | -36
O=C(O)c1nn(-c2ccccc2C(F)(F)F)cc1O | . | -2% | -5 | -2.7 | .
C/C(=N\NC(=O)COc1cccc(C)c1)c1ccc2ccccc2c1O | . | . | 3 | -3.2 | .
COc1ccc(C(=O)NC(=S)N2C[C@H]3C[C@H](C2)c2cccc(=O)n2C3)cc1 | . | . | 7 | 2.4 | .
COc1ccc(CCN(C)C/C=C/c2ccccc2)cc1OC | . | . | -8 | 1.0 | .
Cc1cc(Oc2ccc(-c3ccccc3)cc2)n2ncnc2n1 | 0 | 5% | 80 | 5.7 | -20
Cc1cc(C)cc(NC(=O)C2C3C=CC(O3)C2C(=O)O)c1 (centres undefined) | . | . | 4 | -1.5 | .
COC(=O)c1cc(NC(=O)/C=C/c2ccc3c(c2)OCO3)cc(C(=O)OC)c1 | -30 | -5% | -14 | 3.5 | -33
O=C1c2cccc3cccc(c23)C(=O)N1OS(=O)(=O)c1ccccc1 | -2 | 8% | -3 | -0.9 | -30
CCOC(=O)c1cc2c(s1)-c1c(C)cccc1OC2 | 4 | 6% | 6 | -14 | -44
CCc1ccccc1N(CC(=O)NCC1CCCO1)C(=O)CCC(=O)Nc1nccs1 (centres undefined) | . | . | -5 | -1.8 | .
CN1CCN(c2nc(-c3ccccc3)ncc2S(C)(=O)=O)CC1 | . | . | -5 | -1.3 | .
COc1ccc(CN(CCC#N)CCC2(c3ccccc3)CC(C)N(C)CC2C)cc1OC (centres undefined) | . | 2% | -6 | -1.4 | .
CCOc1ccccc1N(CC(=O)N1CCCC1)S(C)(=O)=O | . | . | -8 | -1.1 | .
C/C(=N\NC(=O)C(=O)Nc1c(C)n(C)n(-c2ccccc2)c1=O)c1ccc(Cl)s1 | . | -4% | -2 | -2.3 | .
COc1ccc(N2CCC(CNC(=O)Nc3ccccc3)C2)cc1 (centres undefined) | 0 | 8% | 13 | 20 | -18
COc1ccc(Nc2nc(-c3sc(C)nc3C)cs2)c(OC)c1 | . | . | 92 | 1.9 | .

Looked up by compound from the entries so far (3):
SMILES | Arbovirus inh | Mtb growth | Mtb bLac sens | RecA splice inh | YopH PTP inh | others
CCOC(=O)c1cc2c(s1)-c1c(C)cccc1OC2 | 4 | 6% | 6 | -14 | -44
Cc1cc(C)cc(NC(=O)C2C3C=CC(O3)C2C(=O)O)c1 (centres undefined) | . | . | 4 | -1.5 | .
Cc1cc(Oc2ccc(-c3ccccc3)cc2)n2ncnc2n1 | 0 | 5% | 80 | 5.7 | -20

Next structures follow:
SMILES | Arbovirus inh | Mtb growth | Mtb bLac sens | RecA splice inh | YopH PTP inh | others
COc1ccc(-c2noc(-c3cccs3)n2)cc1OC | . | 10% | 2 | 1.8 | .
COc1ccc(CCN2C(=O)C(Oc3ccccc3C)C2c2ccc3c(c2)OCO3)cc1OC (centres undefined) | -3 | -11% | -7 | 2.5 | -26
CCc1ccc(/C=C2/Sc3ccccc3N(CC(=O)NCC3CCCO3)C2=O)cc1 (centres undefined) | . | . | 7 | -3.5 | .
COc1ccc2c(C)nc(Nc3nc(-c4ccccc4)cc(=O)[nH]3)nc2c1 | . | 0% | . | 1.1 | .
O=C(CNC(=O)c1ccco1)NCC(=O)OCc1ccccc1Br | -1 | -7% | 6 | -2.0 | -3
CC(C)CCNC(=O)C(=O)NCc1ccccc1 | . | 0% | -11 | 2.1 | .
Cc1ccc(-n2[nH]c(C)c(C=NCc3ccncc3)c2=O)cc1 | . | -1% | 2 | 7.3 | .
CCOC(=O)C1CCN(C(=O)C2CCCCC2)CC1 | 8 | 3% | 0 | -1.6 | -1
Cc1nc(CCNC(=O)CC2C(=O)NCCN2Cc2ccccc2)nc2c1CCC2 (centres undefined) | . | . | -2 | -4.6 | .
O=C(Nc1cccc(C(F)(F)F)c1)c1cccnn1 | . | . | -3 | 0.1 | .
COC(=O)c1cc(S(=O)(=O)NCC2CCN(Cc3ccc(F)cc3)CC2)c[nH]1 | . | . | 5 | -1.0 | .
CCN1C(=O)CC(C(=O)Nc2ccc(F)cc2)SC1=Nc1cccc(OC)c1 (centres undefined) | 21 | . | 8 | 3.3 | -27
Cn1c(-c2ccccc2)c(C(=O)CC#N)c2ccccc21 | 1 | 7% | 1 | -1.3 | .
COc1ccc(N(C)C(=O)C2CCN(S(=O)(=O)c3cccc4nsnc34)CC2)cc1 | . | . | 4 | 0.2 | .
CN1CCN(c2cc(=O)n(C3CCCCC3)c(=O)[nH]2)CC1 | 12 | 6% | -3 | 1.8 | . | Arbovirus inh repeat=4
CC(=O)c1cccc(NC(=O)Nc2ccc3c(c2)N(C)C(=O)CS3)c1 | 0 | 53% | 78 | . | -7
Cc1ccc(SCc2cc(=O)n3[nH]cnc3n2)cc1 | 4 | -13% | -5 | -2.9 | -20
Nc1c(-c2ccccc2)c(CSc2nc3ccccc3[nH]2)nn1-c1ccc(Cl)cc1 | 3 | 21% | 2 | 16 | -13
CCOc1ccc(NS(=O)(=O)c2ccc3[nH]c(=O)cc(C(=O)O)c3c2)cc1 | 0 | -7% | 1 | 0.4 | .
NC(=O)CSc1nc2sc(-c3ccccc3)cc2c(=O)n1N | -8 | . | 32 | -2.0 | -5
CCN(CC)c1ccc(NC(=O)CSc2nc3nc(C)cc(C)c3c(=O)[nH]2)cc1 | . | . | -15 | 0.9 | .
CCC(=O)Nc1ccc2c(c1)ncn2-c1ccccc1 | -1 | 0% | -3 | 1.6 | -91
CCOc1ccc(-c2nnc(-c3ccncc3)o2)cc1OCC | 3 | 7% | 10 | 1.5 | .
COc1cc(C(F)(F)F)c(C(=O)N(C)Cc2cc(Cl)cc(Cl)c2)cn1 | . | 8% | 16 | -6.0 | .
O=C(NCCN1CCCC1=O)C1CCC(=O)N(CCc2ccc(Cl)cc2)C1 (centres undefined) | . | . | 2 | -8.1 | .
COc1cccc(-c2csc(NNC(=O)c3cccs3)n2)c1 | . | ? | 90 | 3.7 | .
CC(C)C[C@H]1CN=C(Nc2ccccc2)N1CCCC1CCCCC1 | . | . | 93 | 9.4 | .
CCCCCCNC(=O)c1c(O)c2cccc3c2n(c1=O)CCC3 | -25 | -18% | 10 | 7.0 | -41
COc1cccc(OCc2cc(C(=O)N(C)C3CCOCC3)no2)c1 | . | . | -31 | 1.2 | .
CCCCn1[nH]c(-c2ccccc2)cc1=O | -3 | 2% | 9 | 97* | -16
COC(=O)CN1C(=O)COc2ccc(S(=O)(=O)N3CCCC3)cc21 | . | . | 2 | 3.5 | .
Cc1ccc(C(=O)N2CC(=O)Nc3ccc(F)cc3C2c2ccccc2)cc1[N+](=O)[O-] (centres undefined) | 1 | 9% | 1 | -3.2 | -8
O=C(CSc1nnc(Cc2cc(=O)[nH]c(=O)[nH]2)n1-c1ccc(F)cc1)N1CCCCC1 | 7 | -6% | 9 | -0.4 | -40 | Arbovirus inh repeat=-1
COc1ccc(CC(=O)Nc2cc3oc4ccccc4c3cc2OC)cc1 | 0 | 22% | 36 | 10 | -23
Nc1cc2nc[nH]c2cc1N | 15 | 3% | . | -4.6 | .
COc1ccc(NC(=S)NNC(=O)c2ccc(S(=O)(=O)N3CCOCC3)cc2)cc1 | -8 | -6% | 1 | -3.5 | .
O=C1/C(=C/c2ccccn2)SC(=S)N1c1cccc(O)c1 | . | -8% | 9 | 6.1 | .
Cc1nc(N2CCOCC2)c2c(C)c(C(=O)Nc3ccccc3Cl)sc2n1 | -1 | 1% | -9 | -1.8 | .
CCCOC(=O)C1[C@H]2C(=O)N(CCCOC)C[C@]23C=C[C@H]1O3 (some centres undefined) | 5 | -7% | 1 | 1.1 | 2
Cc1nc2ccccc2c(=O)n1/N=C/c1cn(-c2ccccc2)nc1-c1cccs1 | -11 | 3% | 5 | -0.8 | -34
O=C(NCc1ccco1)C1CN(S(=O)(=O)c2ccccc2)CCN1S(=O)(=O)c1ccccc1 (centres undefined) | 2 | -4% | 9 | -1.1 | -41
COc1ccc(CCN2CC(C#N)=C3c4cc(OC)c(OC)cc4CCN3C2)cc1OC | 1 | 1% | 1 | -4.4 | -23 | Arbovirus inh repeat=1
CCn1nc(C)c(NC(=O)/C=C/c2cnn(C)c2)c1C | -5 | 2% | -2 | -1.0 | -7
C=C(C)CN(CC)c1nc(N)c2c(N)nc3c(c2c1C#N)CC(=O)N3C12CC3CC(CC(C3)C1)C2 | -28 | -5% | 6 | 7.6 | -14
Cc1nn(C)cc1C(C(=O)NC1CCCCC1)N(C(=O)Cn1nnc2ccccc21)c1ccc(F)cc1 (centres undefined) | -2 | -2% | 2 | -0.4 | -22
Fc1ccc(NC(=S)NCCc2ccc(Cl)cc2)cc1 | -16 | 6% | 7 | -0.7 | -26
O=c1c2sc(-c3ccccc3)cc2nc2n1CCCCC2 | . | . | 1 | -2.0 | .
CCOc1ccc(-n2c(=O)c3sccc3n(Cc3ccc(C)cc3)c2=O)cc1 | -13 | -7% | -5 | -0.8 | .
COc1cc(C(=O)Nc2ccc(Cl)c(C(F)(F)F)c2)cc(OC)c1OC | -15 | 10% | 10 | 0.4 | -10
CC(C)Oc1ccccc1-c1nc(SCC(=O)O)n[nH]1 | 1 | 6% | -10 | 1.7 | -12
Cn1ncc(Cl)c1C(=O)Nc1ccc2c(c1)CCC2 | . | . | -7 | 2.0 | .
COC(=O)C1=C(c2cccc(OC)c2OC)C[C@@H]2CC[C@H]1N2C(=O)NC1CC1 | . | -4% | -10 | -0.7 | .
CN1CCN(CCC2Oc3cc([N+](=O)[O-])ccc3NC2=O)CC1 (centres undefined) | 0 | 1% | -7 | 2.9 | .
Cc1cccc2cc(C#N)c(SCC(=O)N3CCC(C)CC3)nc12 | 0 | 12% | -11 | 0.6 | -48
Cc1ccc(S(=O)(=O)CCC(=O)OCC(=O)NC(N)=O)cc1 | . | . | 2 | -2.0 | .
CC(C)(C)OC(=O)N1CCC(CNC(=O)c2ccc(F)cc2)CC1 | . | -3% | -9 | -1.2 | .
Cc1n[nH]c(=S)n(NC(=O)/C=C/C(=O)Nn2c(=S)[nH]nc(C)c2=O)c1=O | 5 | -1% | . | -2.0 | .
Nc1nonc1-n1nnc(C(=O)N/N=C/c2ccc(OCc3ccccc3)cc2)c1CN1CCCCC1 | . | . | 8 | 0.2 | .
C1=CN2CCC1C(c1ccccc1)C2 (centres undefined) | -10 | 0% | -7 | -0.4 | -33
CCOc1ccccc1NC(=O)CN1C(=O)C(=O)N(Cc2ccco2)C1=O | 0 | -4% | -4 | -1.6 | .
Other results follow.
SMILES | Arbovirus inh | Mtb growth | Mtb bLac sens | RecA splice inh | YopH PTP inh | others
CCN(CC)C(=O)CCC(=O)Nc1ccc(C(=O)OC)cc1 | 0 | 0% | -18 | -0.3 | -28
COC(=O)c1nc(-n2nc(C)cc2C)ccc1Cl | 5 | 0% | 7 | 1.2 | -4
CCOC(=O)C1(Cc2cccc(F)c2)CCN(C(=O)Cc2cccnc2)CC1 | 2 | -8% | -7 | 1.8 | .
O=C(NC(=S)Nc1cc(Cl)ccc1N1CCOCC1)c1ccc(-c2cccc(Cl)c2)o1 | 0 | 3% | -4 | 3.7 | -32

Arranged by heavy-atom count (largest number first): part of the list above
SMILES | Arbovirus inh | Mtb growth | Mtb bLac sens | RecA splice inh | YopH PTP inh | others
O=C(NC(=S)Nc1cc(Cl)ccc1N1CCOCC1)c1ccc(-c2cccc(Cl)c2)o1 | 0 | 3% | -4 | 3.7 | -32
CCOc1ccccc1NC(=O)CN1C(=O)C(=O)N(Cc2ccco2)C1=O | 0 | -4% | -4 | -1.6 | .
CCN(CC)C(=O)CCC(=O)Nc1ccc(C(=O)OC)cc1 | 0 | 0% | -18 | -0.3 | -28
COC(=O)c1nc(-n2nc(C)cc2C)ccc1Cl | 5 | 0% | 7 | 1.2 | -4
C1=CN2CCC1C(c1ccccc1)C2 (centres undefined) | -10 | 0% | -7 | -0.4 | -33

Source: PubChem

A portion of the library; rates above refer to the full screens.
